TsaE inh = YjeE (TsaE) inhibition, E. coli; hit rate 0.05% among 71,000; Potency, µM; purified YjeE, fluorescence polarisation of a bound ADP probe; P0AF67; active = well fitted falling curve; inconclusive = weaker or top-dose-only fall, or a rising curve; inactive = flat or poorly fitted curve;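 further: top concentration of the series not given in the record; excess ADP was the control for the full effect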
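Purified YjeE (10 uM) with BODIPY Texas Red-labeled ADP probe (2 uM); compounds pin-transferred, 15 min at room temperature. Binding inhibition read as decreased fluorescence polarization; ADP titration as control.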
Bst PK mod = modulators of Bacillus stearothermophilus pyruvate kinase; partly purified Bacillus stearothermophilus pyruvate kinase, luminescence ATP production; ribose 5-phosphate activator present at AC10; Potency, µM; hit rate 1.2% among 51,000; in the data active means potency below about 11 µM; inconclusive means mostly about 12 µM to 25 µM; inactive means weaker than that;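 the screen sought inhibitors and activators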;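 further: potency means the concentration at half of the fitted maximal effect; scaled between full activation by ribose 5 phosphate and full inhibition by luteolin; about four in five hits inhibit and the cells do not say which; series up to 57 µM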
* hit, by the source's call; i = inactive; ? = inconclusive; . = not tested or not shown. Not all compounds are listed (hit frequency here may not be typical).

Preview, seven compounds:
SMILES	TsaE inh	Bst PK mod
CCOC(=O)Nc1ccc2c(CN3C(=O)NC4(CCCC4)C3=O)cc(=O)oc2c1	i	>57
COC1=CC(=O)OC12CCCCC2	i	.
COc1ccc(NC(=O)CSc2nnc(-c3cccnc3)n2Cc2ccco2)c(OC)c1	i	>57
Cc1cc(C)c(NC(=O)NC(=O)c2cccc(F)c2)c(C)n1	i	>57
O=C(CSc1nnc(-c2ccco2)n1CC1CCCO1)c1ccc(F)cc1 (stereo not drawn)	i	>57
COc1ccc(C(C(=O)NC2CCCC2)N(C(=O)c2ccco2)c2ccc3c(c2)OCO3)cc1OC (stereo not drawn)	i	>57
COc1ccc(C2N=C(c3ccccc3)C(C)(C)N2O)cc1OC (stereo not drawn)	i	.

This part in full, repeating the preview:
SMILES	TsaE inh	Bst PK mod
CCOC(=O)Nc1ccc2c(CN3C(=O)NC4(CCCC4)C3=O)cc(=O)oc2c1	i	>57
COC1=CC(=O)OC12CCCCC2	i	.
COc1ccc(NC(=O)CSc2nnc(-c3cccnc3)n2Cc2ccco2)c(OC)c1	i	>57
Cc1cc(C)c(NC(=O)NC(=O)c2cccc(F)c2)c(C)n1	i	>57
O=C(CSc1nnc(-c2ccco2)n1CC1CCCO1)c1ccc(F)cc1 (stereo not drawn)	i	>57
COc1ccc(C(C(=O)NC2CCCC2)N(C(=O)c2ccco2)c2ccc3c(c2)OCO3)cc1OC (stereo not drawn)	i	>57
COc1ccc(C2N=C(c3ccccc3)C(C)(C)N2O)cc1OC (stereo not drawn)	i	.
COc1ccc(C(=O)NCC(=O)O)cc1	i	>57
O=C(c1cccc2cccc(O)c12)N1CCCCC1	i	>57
CCc1ccccc1NC(=O)CSc1ncn[nH]1	i	.
CCC1Oc2ccc(C)cc2N(CC(=O)N(Cc2cccnc2)Cc2ccc(C)o2)C1=O (stereo not drawn)	i	>57
COc1cccc(NC(=O)N2CCCC2C(=O)NC2CC2)c1 (stereo not drawn)	i	>57
CC(C)CN1CC[C@@]2(CCCN(C(=O)c3cnccn3)C2)C1	i	.
Cc1cc(C(F)(F)F)nc(SCC(=O)NC2CC3CCC2C3)n1 (stereo not drawn)	i	>57
Cc1cc(C)c(NC(=O)Cn2cc3c(n2)CCCC3)c(C)c1	i	.
Cc1cc(C)cc(N(CC(=O)Nc2c(C)n(C)n(-c3ccccc3)c2=O)S(C)(=O)=O)c1	i	.
COc1cccc(-c2nc(C(N)=O)c3[nH]c(=O)n(-c4cccc(Cl)c4)c3n2)c1OC	i	.
Cc1ccc(C)c(/C(O)=C2\C(=O)C(=O)N(CCCn3ccnc3)C2c2ccncc2)c1 (stereo not drawn)	i	>57
CCCOc1ccc(S(=O)(=O)NCCN2CCOCC2)c2ccccc12	i	>57
CCCCNC(=O)CC1Nc2ccccc2NC1=O (stereo not drawn)	i	.
O=C(Nc1ccccc1Cl)c1c(F)c(F)c(F)c(F)c1F	i	>57
O=C(NC1CCCCC1)C(c1ccccc1)N1CCOCC1 (stereo not drawn)	i	>57
CC(C)C[C@@H](CC(=O)N[C@H](CC(=O)N[C@@H]1CCNC[C@H]1C(=O)N[C@H](CC(=O)N[C@@H](CCC(=O)O)CC(=O)O)Cc1c[nH]c2ccccc12)C(C)C)NC(=O)[C@@H]1CNCC[C@H]1N	i	.
COc1ccc(NC(=O)c2cc(C(C)C)on2)c(OC)c1	i	.
CN1C(=O)CC(N2CCC(C(N)=O)(N3CCCCC3)CC2)C1=O (stereo not drawn)	i	>57
Cc1ccccc1-c1nnc(SCC(=O)Nc2cccc(C)c2C)o1	i	>57
Cc1ccc(Cn2ccc(NC(=O)c3cc(C(C)C)on3)n2)cc1	i	.
NC(=O)C1CC(O)CN1c1nc(CN2CCOCC2)nc2scc(-c3ccccc3)c12 (stereo not drawn)	i	>57
COc1cc(C(=O)Nc2ccc(OCC(=O)O)cc2)cc(OC)c1OC	i	.
Cc1ccc(CNC(=O)[C@H](C)[C@@H]2C[C@@]2(C)[C@@H](NC(=O)OCc2ccccc2)c2ccccc2)c(F)c1F	i	.
Cc1cc(NC(=O)COc2ccc(N(C)S(=O)(=O)c3ccccc3)cc2)no1	i	>57
Cc1cc(C)c2nc(C(F)(F)F)nc(N3CC(C)OC(C)C3)c2c1 (stereo not drawn)	i	>57
O=C(O)CCCCCC[C@@H]1C(=O)NC(=O)N1CC[C@@H](O)C1CCCCC1	i	.
O=c1cc(O)nc(SC23CC4CC(CC(C4)C2)C3)[nH]1	i	>57
O=C(Nc1ccccc1N1CCN(c2ccc(F)cc2)CC1)c1ccccc1	i	>57
CCN(CC)Cc1c[nH]c2c(C(=O)OC)cccc12	i	.
O=C(O)c1cccnc1-c1ncccc1C(=O)O	i	>57
Cc1ccc(N(CC(=O)Nc2ccc(S(=O)(=O)N3CCOCC3)cc2)S(C)(=O)=O)cc1C	i	.
CCOC(=O)c1[nH]c(C)c(C(=O)NC2CCCCCC2)c1C	i	>57
CCOC(=O)CSc1nnc(CSc2nc3ccccc3c(=O)[nH]2)n1-c1ccccc1	i	>57
O=C(NCc1cn2ccsc2n1)c1cccc(C(F)(F)F)c1	i	>57
COc1ccc(Cl)c(Cn2c(NCCCO)nc3c2c(=O)n(C)c(=O)n3C)c1	i	>57
Fc1ccc(-c2cc3nc(-c4ccccc4)cc(N4CCOCC4)n3n2)cc1	i	?
COCCn1c(=O)cnc2cnc(N(C)C)nc21	i	.
CCOc1ccc2[nH]c(=O)c(CN(Cc3ccco3)Cc3nnnn3Cc3ccccc3)cc2c1	i	>57
O=c1cc(CSc2nnnn2-c2ccccc2)nc2nc[nH]n12	i	>57
CCCn1c(SCC(=O)Nc2nc(C)cs2)nnc1-c1cccnc1	i	>57
CCN1CCN(C(=O)C(C)N(c2ccc(C)cc2)S(C)(=O)=O)CC1 (stereo not drawn)	i	>57
CC(C)(S)[C@@H](N)C(=O)O	.	>25.6
CC(C)C(NC(=O)c1cccs1)c1nnc(SCC(=O)Nc2nccs2)n1C (stereo not drawn)	i	>57
Cc1nc(NC(=O)CN2CCOCC2)sc1-c1ccccc1	i	>57
O=C(Nc1ccc(Cc2ccncc2)cc1)c1ccc(Br)o1	i	>57
COc1ccc(OC)c(CCNC(=O)CC2Oc3ccccc3NC2=O)c1 (stereo not drawn)	i	.
CCc1[nH]nc2c1C1(C(=O)N(Cc3ccccc3)c3ccccc31)C(C#N)=C(N)O2 (stereo not drawn)	i	>57
O=c1c2ccccc2nc2c3ccccc3ncn12	i	i
C(=C/c1ccccc1)/CN1CCN(C(c2ccccc2)c2ccccc2)CC1	i	.
O=C(NCCN1CCOCC1)C1CCN(S(=O)(=O)N2CCCCC2)CC1	i	>57
CS(=O)(=O)c1ccc(CNC(=O)[C@H]2C[C@@H]2[C@H](NP(=O)(c2ccccc2)c2ccccc2)c2ccccc2)cc1	i	.
CC(C)Cn1nc(NC(=O)C(C)(C)C)c2cc3ccccc3nc21	.	>25.6
COc1ccc(CN(C(=O)c2snc(C(N)=O)c2N)C(C(=O)NC(C)(C)C)c2ccco2)cc1 (stereo not drawn)	i	>57

(cont.)
SMILES	TsaE inh	Bst PK mod
COC(=O)c1ccccc1NC(=O)Nc1nnc(N2CCCCC2C)s1 (stereo not drawn)	i	.
CC1C(c2ccccc2)=[N+]([O-])C2(CCCC2)N1O (stereo not drawn)	i	.
O=C(Nc1cccnc1)Nc1ccc(Br)cc1Cl	i	>57
CC1CCCCN1Cc1nc2c(c(=O)n(C)c(=O)n2C)n1CCCc1ccccc1 (stereo not drawn)	i	>57
CCOC(=O)c1cc(-c2ccccc2)n(CC(=O)N2CCCC2)c1C	i	>57
COc1cccc(C(=O)NCc2ccccc2OC)c1	i	.
CC1(C)OC(C(N)=O)C(C(N)=O)O1 (stereo not drawn)	i	>57
O=c1cc(C(F)(F)F)c2sc(N3CCCCC3)nc2[nH]1	i	>57
CCOc1ccc(C2CC(c3cccc(OC)c3)Nc3nc(N)nn32)cc1 (stereo not drawn)	i	.
O=C(Cc1c(C(=O)O)[nH]c2ccccc12)NCCN1CCN(c2cccc(Cl)c2)CC1	i	>57
CC(C)c1ccc(-c2nnn(CCC(=O)O)n2)cc1	i	.
CCOc1ccc(S(=O)(=O)N(CC(=O)O)c2ccc(C)cc2)cc1	i	>57
O=C(O)c1cccc(N2CCCC2)c1	i	>57
COc1ccc(-n2c(CNC(=O)c3ccc(S(=O)(=O)N4CCCC4)cc3)n[nH]c2=S)cc1	i	>57
Cc1c(C(=O)NC2CCCCC2)oc2c1C(=O)CC(C)(C)C2	i	>57
COc1ccc(-n2c(=O)c(C)nc3cnc(Nc4ccccc4)nc32)cc1	i	.
CSC(=NS(=O)(=O)c1ccc(C)cc1)SC	i	.
O=C(O)c1ncc(-c2ccccc2)cn1	i	.
CC1CCc2cc(F)cc3c(O)c(C(=O)NCC4CCCO4)c(=O)n1c23 (stereo not drawn)	.	>25.6
Nc1nc(-c2ccccc2)nn1C(=O)Cc1ccccc1	i	.
Cn1c(SCC(=O)NC2CCCCCC2)nnc1-c1cccs1	i	>57
CC(=O)c1cc2cc(O)ccc2o1	i	>57
O=S(=O)(NC1CCCCCC1)c1cccc2cccnc12	i	11*
NC(=O)c1cccn1Cc1ccccc1Cl	i	>57

Reformatted: 2 of the compounds above.
Below each compound: TsaE inh, Bst PK mod
- COCCn1c(=O)cnc2cnc(N(C)C)nc21
  i, .
- CCOc1ccc2[nH]c(=O)c(CN(Cc3ccco3)Cc3nnnn3Cc3ccccc3)cc2c1
  i, >57

5 entries already listed, arranged by SMILES length, lowest first.
SMILES	TsaE inh	Bst PK mod
O=C(O)c1ncc(-c2ccccc2)cn1	i	.
CSC(=NS(=O)(=O)c1ccc(C)cc1)SC	i	.
Nc1nc(-c2ccccc2)nn1C(=O)Cc1ccccc1	i	.
Cc1c(C(=O)NC2CCCCC2)oc2c1C(=O)CC(C)(C)C2	i	>57
COc1ccc(-n2c(=O)c(C)nc3cnc(Nc4ccccc4)nc32)cc1	i	.

New compounds follow.
SMILES	TsaE inh	Bst PK mod
Cn1nnc2c(N3CCCCC3)nccc21	i	>57
Cc1cc(NCC2CCCO2)n2c(nc3ccccc32)c1C#N (stereo not drawn)	.	>25.6
O=C(NC12CC3CC(CC(C3)C1)C2)N1CC2Cc3cccc(=O)n3C(C2)C1 (stereo not drawn)	i	>57
CC(C)NC(=O)c1c(O)c2ccccc2[nH]c1=O	i	>57
Cc1nc2ccc(NC(=O)Cn3cnc4c3c(=O)n(C)c(=O)n4C)cc2s1	i	>57
COc1ccc(N2CCN(C(=O)c3ccc(NS(=O)(=O)c4ccc(F)c(F)c4)cc3)CC2)cc1	i	>57
COc1ccc(NC(C)=O)cc1NC(=O)CN1CCN(CC(=O)Nc2ccccc2Cl)CC1	i	>57
Cc1ccc(N(C)C(=O)N2CCN(S(=O)(=O)c3ccc(C)cc3)CC2)cc1	i	.
CC(C)CN(CCCNC(=O)CC1Oc2ccccc2NC1=O)CC(C)C (stereo not drawn)	i	>57
O=C(O)CSCCCC(=O)Nc1ccc(Br)cc1	i	>57
CCN(CC)CCCN1C(=O)c2oc3ccccc3c(=O)c2C1c1cc(OC)ccc1OC (stereo not drawn)	i	>57
CCCSc1ncnc2c1oc1ccccc12	i	.
CC(=O)c1cccc(NC(=O)C2CCCN(S(=O)(=O)c3cccc4cccnc34)C2)c1 (stereo not drawn)	i	.
O=C(NCCCN1CCCCCC1)c1ccc(N2CCCC2=O)cc1	i	>57
CCOC(=O)CN(Cc1ccccc1)S(=O)(=O)c1ccc(NC(C)=O)cc1	i	>57
Cc1cc(C)nc(N2CCC(C(=O)Nc3cccc(C(F)(F)F)c3)CC2)n1	i	>57
COc1ncc2nc(-c3ccccc3)c(=O)n(-c3ccccc3)c2n1	i	.
COc1cccc(C(C(=O)NC2CCCC2)N(C(=O)c2ccco2)C2CC2)c1OC (stereo not drawn)	i	.
CCn1c(=O)n(CC(=O)Nc2cc(OC)ccc2OC)c(=O)c2ccccc21	i	>57
c1cncc(-c2nn3c(-c4ccncc4)nnc3s2)c1	i	>57
COc1ccc(-c2nc(CS(=O)CC(=O)NCc3cccnc3)c(C)o2)cc1 (stereo not drawn)	i	.
Cc1ccc(SCCC(=O)NCc2ccco2)cc1	i	>57
CCN(Cc1ccccc1)C(=O)Cn1cc2c(n1)CCCC2	i	.
COc1ccccc1C(=O)Nc1nnn(C)n1	i	>57
c1cncc(-c2cncnc2NCc2cccs2)c1	i	.
CC12CCC(C(=O)NC3CCCC3)(CC1=O)C2(C)C (stereo not drawn)	i	>57
COC(=O)c1cc2c(s1)-c1ccccc1OC2	i	.
Cc1cc(C)n(-c2ccc(C(=O)Nc3ccc4c(c3)OCCO4)cc2)n1	i	i
COc1ccc(OC)c(-c2csc3nnc(SCC(=O)Nc4ccc(NC(C)=O)cc4)n23)c1	i	>57
CCc1cc2c(N3CCCCC3)ncnc2s1	i	>11.4
O=C(NC1CCCCC1)C1CCN(c2cnccn2)CC1	i	>57
O=C(c1ccco1)N1CCN(Cc2cccc(F)c2)CC1	i	>57
CCOC(=O)CSc1nnc(-c2ccc(OC)cc2)n1CC	i	>57
Cc1ccc(-c2ccc(=O)n(CC(=O)NCCN3C(C)CCCC3C)n2)cc1 (stereo not drawn)	i	>57
O=C(CSC1=NCCS1)N1CCCC1	i	>57
COC(=O)[C@@]1(Cc2ccc(F)cc2)[C@H]2c3cc(C(=O)N4CCCC4)n(Cc4ccc(Cl)c(C(F)(F)F)c4)c3C[C@H]2CN1C(=O)c1ccccc1	i	.
COc1ccc(CCNC(=O)c2oc3ccc(S(=O)(=O)N4CCOCC4)cc3c2C)cc1OC	i	>57
CC[C@H]1C2=C3C(CC[C@H]4C(OC)OC[C@](C)([C@@H]34)N(C(=O)OC(C)(C)C)C2)C(CO)C1CO (stereo partly drawn)	i	.
COc1ccccc1CNC(=O)CCCNS(=O)(=O)c1cccc2nsnc12	i	>57

Compound activity (PubChem)
